High-throughput results: PubChem, SRMLSC
H5N1 CPE: MDCK cell protection from H5N1 avian flu. 96,000 compounds, 0.07% hits. cytopathic effect, luminescence, 72 h; stronger effect = higher value; no value below 0 was filed and about half of the inactive calls have no number; reference of the scale not given here. inhibition, % at 50 µM. AID 740; in the data active = inhibition above about 25%
Active calls of the source: *; i = inactive. The list is partial (hit frequency here may not be typical).

structure	H5N1 CPE
Cc1nn(-c2cccc(Cl)c2)c2c1C(c1ccncc1)C(C#N)=C(N)O2 (configuration not stated)	i
CCOC(=O)NCc1cc(-c2nn(C)c(=O)c3ccccc23)ccc1C	0.7
CCOC(=O)N1CCN(c2c(NCC3CCN(Cc4cccc(C)c4)CC3)c(=O)c2=O)CC1	i
Cc1cc(N2CCOCC2)ncc1[N+](=O)[O-]	0.7
CCc1ccc2[nH]c(=O)c(C3C(C#N)=C(N)Oc4c3ccc3cccnc43)cc2c1 (configuration not stated)	0.1
CCOC(=O)C(NC(=O)CC)(Nc1sc2c(c1C(=O)OC)CCN(C)C2)C(F)(F)F (configuration not stated)	1.3
COc1ccc(/C=N/NC(=O)c2ccccc2O)cc1Cn1cc(Cl)cn1	0.2
CCS(=O)(=O)c1ccc(C(=O)Nc2cccc(Cl)c2)c(Cl)c1Cl	12.1
CCOc1ccc(C(O)Cn2c(=N)n(CCN3CCCCC3)c3ccccc32)cc1 (configuration not stated)	i
COCCN(CC(=O)NC1CCCCC1)C(=O)CSc1nc2ccccc2o1	0.3
CCOC(=O)c1[nH]c2ccccc2c1NC(=O)CC	2.1
O=C(COc1ccc(/C=N/NS(=O)(=O)c2ccccc2)cc1)Nc1ccccc1	i
CCc1noc(N)c1C(=O)Nc1ccc(F)c(Cl)c1	i
Cc1ccccc1SCc1noc(C(=O)NC(C)C)c1C(=O)O	i
O=C(CCc1nc(-c2ccccc2F)no1)NCCN1CCc2ccccc2C1	1.4
Cc1ccc(S(=O)(=O)N2CCOCC2)cc1C(=O)N1c2ccccc2Sc2ccccc21	0.6
CC1(C)CC(CC(=O)Nc2ccccn2)C(=O)O1 (configuration not stated)	i
O=C(Nc1ncccn1)c1cccs1	2.3
CCOC(=O)c1ccc(NC(=O)c2cccc(S(=O)(=O)N3CCOCC3)c2)cc1	2.2
Cc1ccc(-c2noc(-c3ccccc3C(=O)N3CCN(C)CC3)n2)cc1	0.1
O=c1c2ccccc2ncn1CCCOc1ccccc1[N+](=O)[O-]	4.2
Cc1cc(NC(=O)CSc2nc3ccccc3c(=O)n2Cc2ccccc2)no1	i
CCNc1nc(OCCNS(=O)(=O)c2cc(C)ccc2C)nc(N(C)C)n1	0.7
O=C(N/N=C/c1ccc(OC2CSC2)cc1)c1ccccc1	0.4
Cc1csc(NC(=O)C2CCC(C)(C(=O)O)C2(C)C)n1 (configuration not stated)	0.1
CCC(=O)c1ccc(OCC(=O)N2CCc3cc(OC)c(OC)cc3C2)cc1	i
CC(C)CC(c1nnnn1C1CCCC1)N1CCN(c2ccccc2F)CC1 (configuration not stated)	0.3
O=C(Nc1ccc2nn(-c3ccccc3)nc2c1)c1cccnc1	i
CC(=NCc1ccc2c(c1)OCO2)C1=C(O)c2ccccc2C1=O	i
CCN(CC)CCCNC(=O)c1sc2nc(-c3ccc(F)cc3)cn2c1C	i

Reprinted from the part before: 3 entries, then new ones.
structure	H5N1 CPE
O=C(Nc1ccc2nn(-c3ccccc3)nc2c1)c1cccnc1	i
CC(=NCc1ccc2c(c1)OCO2)C1=C(O)c2ccccc2C1=O	i
CCN(CC)CCCNC(=O)c1sc2nc(-c3ccc(F)cc3)cn2c1C	i
CCOC(=O)c1sc(NS(=O)(=O)c2cc(C)ccc2C)nc1C	2.0
CCc1ccccc1NC(=S)NC1CC2CCC(C1)N2Cc1ccco1 (configuration not stated)	i
O=C(O)c1c(Cl)c(Cl)c(Cl)c(Cl)c1C(=O)N1CCCC1	i
COc1ccc(C2=NOC(C(=O)NCc3ccc(F)cc3)C2)cc1 (configuration not stated)	i
COc1cc(C(=O)N2CCC(NC(=O)C(Cc3ccc(C(C)C)cc3)NC(C)=O)CC2)cc(OC)c1OC (configuration not stated)	0.2
Cc1ccc(S(=O)(=O)CC(=O)c2ccc(C)c([N+](=O)[O-])c2)cc1	1.4
Cc1cc(C)c2cc(CN(Cc3cccnc3)C(=O)c3ccc(F)cc3)c(Cl)nc2c1	i
CC(=O)NC12CC3CC(C1)CC(C(=O)OCC(=O)Nc1ncc(Cl)cc1Cl)(C3)C2	0.2
O=C(CSc1cccc2cccnc12)N1CCCC1	2.1
CCOc1ccc2c(c1)c1nnc(SCC3CCCO3)nc1n2C (configuration not stated)	3.1
COc1c(Cl)cc(-c2noc(C)c2C(=O)NCCc2ccc(C)cc2)cc1Cl	0.5
Cn1cccc1Cc1nnc(SCC(=O)NCc2ccccc2Cl)n1-c1ccc(F)cc1	i
CCOC(=O)C1CCN(S(=O)(=O)c2c(C)n(C)c(=O)n(C)c2=O)CC1	0.8
Cc1ccc(Cn2c(S(=O)(=O)O)nc3ccccc32)cc1	i
COC(=O)c1[nH]c2ccccc2c1NC(=O)CN1CCCCCC1	0.5
Oc1ccc2ccccc2c1C=Nc1ccccc1-c1nc2ccccc2[nH]1	8.9
CN(C)c1nc2ccccc2c(N)c1-c1ccccc1	i
Cc1ccc2nc(Cc3ccc(N)cc3)oc2c1	0.5
Cc1ccc(C)c(C(=O)CSc2nnnn2-c2cccnc2)c1	i
CCOc1ccc(-c2cc(NC(=O)Cn3ncc4c3-c3ccccc3OC4)on2)cc1OCC	i
COC(=O)c1ccc(C2NC(C(=O)O)CS2)cc1 (configuration not stated)	i
Cc1cc(SCC(=O)N2CCCC2)nc2ccccc12	0.3
CC(O)(CS(=O)(=O)Cc1cccc(C(F)(F)F)c1)C(=O)Nc1cccc(C(F)(F)F)c1 (configuration not stated)	i
O=C(CSc1nnc2ccccn12)Nc1ncc(Cl)cc1Cl	0.8
CCN(CC)Cc1c(CC(C)C)oc(C)c1C(=O)O	i
COC(=O)c1c(F)c(F)c(N2CCOCC2)c(F)c1F	i
Cc1nc2ccccc2nc1SCC(=O)N1CCC(C)CC1	1.3
CCN(CC(=O)NCc1ccccn1)S(=O)(=O)c1ccc(Cl)cc1	0.1
COC(=O)c1ccc(COc2ccc(C3C4=C(CCCC4=O)Nc4onc(C)c43)cc2)cc1 (configuration not stated)	1.2
CCCCNC(=S)N(C)/N=C/c1ccccc1C(=O)O	0.4
COc1cc(OC)cc(C(=O)Nc2ccccc2NC(C)=O)c1	i
Cc1cnc(NC(=O)CSc2c(Cl)cccc2Cl)s1	i
O=C(CSc1ccc2nnc(-c3cccnc3)n2n1)NCC1CCCO1 (configuration not stated)	0.6
CC1(C)CC(=O)C2=C(C1)NC(=O)CC2c1cc2c(cc1Br)OCO2 (configuration not stated)	i
CC1CCCC(NC(=O)CSc2nnc(N)s2)C1C (configuration not stated)	0.2
CC(=O)C1=C(C)NC(SCC(=O)c2ccccc2)=C(C#N)C1c1ccco1 (configuration not stated)	1.2
O=C(Nc1ccc(F)cc1)N(Cc1nnc2n1CCCCC2)c1ccccc1	1.2
Cc1cc(/C=C2\C(=O)NC(=O)N(C)C2=O)c(C)n1-c1ccc2c(c1)OCO2	i
CC1CCCCC1NC(=O)CSc1nnc(N)s1 (configuration not stated)	i
O=C(CCN1C(=O)COc2ccccc21)N1CCCCC1	i
O=C(NCC1CCCO1)C1CCCN(c2ncccn2)C1 (configuration not stated)	0.1
O=C(Oc1oc(-c2ccco2)nc1C=Nc1ccccc1)c1ccco1	1.7
COc1ccc(C2C(C(=O)OCC3CCCO3)=C(C)NC3=C2C(=O)CC(c2ccco2)C3)cc1O (configuration not stated)	0.7
COc1ccc(-c2c(C(C)=O)c(C)nc3sc4c(c23)NC(c2ccccc2)NC4=O)cc1 (configuration not stated)	i
Cc1ccc2c(c1)nnn2C1CCN(S(=O)(=O)c2ccc(C(=O)N(C)C3CCCCC3)cc2)CC1	i
CCCCCCC(=O)Nc1nc(C)c(-c2csc(Nc3ccccc3OC)n2)s1	i
O=[N+]([O-])c1ccc(NCCNc2ccc(Cl)nn2)cc1	0.8
O=C(c1ccco1)n1c(=S)nc2ccccn21	7.4
CC(=O)Nc1ccc(C2Nc3ccccc3C(=O)N2C2CCCCC2)cc1 (configuration not stated)	0.2
O=C(NC1CCS(=O)(=O)C1)Oc1ccc(Cl)cc1 (configuration not stated)	i

Taken from above, 2 compounds:
structure	H5N1 CPE
O=C(NCC1CCCO1)C1CCCN(c2ncccn2)C1 (configuration not stated)	0.1
O=C(Oc1oc(-c2ccco2)nc1C=Nc1ccccc1)c1ccco1	1.7

Among those listed so far, 6 contain two or more sulfur atoms.
structure	H5N1 CPE
Cc1ccc(S(=O)(=O)N2CCOCC2)cc1C(=O)N1c2ccccc2Sc2ccccc21	0.6
CCOC(=O)c1sc(NS(=O)(=O)c2cc(C)ccc2C)nc1C	2.0
Cc1cnc(NC(=O)CSc2c(Cl)cccc2Cl)s1	i
CC1CCCC(NC(=O)CSc2nnc(N)s2)C1C (configuration not stated)	0.2
CC1CCCCC1NC(=O)CSc1nnc(N)s1 (configuration not stated)	i
CCCCCCC(=O)Nc1nc(C)c(-c2csc(Nc3ccccc3OC)n2)s1	i

Continuation:
structure	H5N1 CPE
Cc1cccnc1NC(=O)COc1ccc2oc3c(c2c1)CCCC3	i
CSc1ccc(S(=O)(=O)Nc2ccc(N3CCOCC3)c(Cl)c2)cc1	1.1
Cc1cc(N2CCOCC2)nc2ccc(NC(=O)CCC(=O)N3CCC4(CC3)OCCO4)cc12	0.5
O=C(NCc1cccnc1)c1ccc(CS(=O)(=O)Cc2ccc(Cl)cc2)o1	0.8
c1ccc(-c2nnc(CSc3nnc(-c4cccs4)o3)o2)cc1	2.3
Cn1cccc1CNCCc1ccccc1F	i
CCOc1ncccc1C(=O)Nc1ccc2c(C)cc(=O)oc2c1	1.4
Cc1ccc(Cn2ccc(NC(=O)c3nc4ncccn4n3)n2)cc1	0.7
O=C(O)COc1cccc2ccccc12	0.3
Cc1cc(C)c(C2C(C#N)=C(N)Oc3n[nH]c(C)c32)cc1CN1CCCC1 (configuration not stated)	0.9

The listing continues.
| mol | H5N1 CPE |
| --- | --- |
| CCOc1ccc(N(C)S(=O)(=O)c2ccc3[nH]cc(C(=O)NCC4CCCO4)c(=O)c3c2)cc1 (configuration not stated) | i |
| Cc1c(NC(=O)CN2CCN(C(c3ccccc3)c3ccccc3)CC2)c(=O)n(-c2ccccc2)n1C | 0.6 |
| O=C(Cn1cc2c(n1)CCCC2)NC1CCCCCC1 | 0.1 |
| CCn1c(C(=O)N2CCC(C(=O)NCCCSC3CCCCC3)CC2)cc2sccc21 | i |
| O=C(Nc1nc2ccccc2n1Cc1ccccc1)c1ccc(COc2ccccc2[N+](=O)[O-])o1 | i |
| CCOC(=O)c1sc(NC(=O)c2ccc(Br)o2)cc1C | i |
| COc1ccc2[nH]c(=O)c(CN(C(=O)c3ccccn3)C3CCCCC3)cc2c1 | 1.2 |
| O=c1c2ccccc2nc(-c2ccoc2)n1-c1ccccc1Cl | 0.3 |
| O=C(Cc1ccccc1)n1nc(-c2ccco2)nc1SCc1ccccc1 | i |
| Cc1cc(C)c(NC(=O)CCCN2CCOCC2)c(C)c1 | 1.4 |
| COc1ccc(NS(=O)(=O)CC23CCC(CC2=O)C3(C)C)cc1 (configuration not stated) | 2.5 |
| CC1(C)C/C(=N\O)c2cc3c(nc2C1)CCCC3 | 0.7 |
| c1ccc(-n2nnnc2NCCCN2CCOCC2)cc1 | 2.2 |
| CC(C)(C)C(=O)Nc1ccc(C(=O)NNC(=O)Cc2ccccc2)cc1 | 1.5 |
| CCOc1ccc(CCNC(=O)C2CCCN(c3nn4c(=O)cc(C)nc4s3)C2)cc1 (configuration not stated) | 0.9 |
| O=C(Nc1ncnc2sc3c(c12)CCCCC3)c1ccco1 | 1.4 |
| CCOc1cc(C)c(C(C)C)cc1S(=O)(=O)n1ccc(C)n1 | 3.5 |
| CC(C)C(=O)N(c1ccc(F)cc1)C1C=CS(=O)(=O)C1 (configuration not stated) | 0.5 |
| Cc1cc(C(=O)Nc2cccnc2)no1 | 0.3 |
| CNc1nc(SC)nc(N2CCOCC2)n1 | i |
| CCOC(=O)c1c(NC(=O)CCCN2CCOCC2)sc2c1CC(C)(C)OC2 | 0.2 |
| CCS(=O)(=O)NCCCCc1ccccc1 | 0.9 |
| Cc1ccc2[nH]c(=O)c(CN(Cc3ccc4c(c3)OCO4)Cc3nnnn3C3CCCC3)cc2c1 | 0.2 |
| Cc1cnc(NC(=O)CSc2nnc(Cc3ccccc3)o2)s1 | 1.0 |
| N#Cc1c(-c2ccccc2)cc(-c2ccccc2)nc1SCc1nnc(-c2ccccc2)o1 | 0.5 |
| O=C(CSc1nnc(-c2ccc3c(c2)OCCO3)o1)N1CCCC1 | i |
| Cn1c(O)c(C=NCCc2c[nH]c3ccccc23)c(=O)n(C)c1=O | 0.1 |
| COc1ccc(NCc2nnc(SCC(=O)Nc3cc(C)cc(C)c3)o2)cc1 | i |
| Cc1ccc[n+](/C(C(=S)NCc2ccco2)=C(/[O-])c2ccccc2Cl)c1 | 2.2 |
| COc1cc(-c2cc(OC)c3c(C)oc(C)c3c(=O)c2)ccc1O | i |
| CCc1ccc(NC(=O)NCCN2CCc3ccccc3C2)cc1 | i |
| CCOC(=O)c1c(C)n(C)c2ccc(OC(=O)c3ccco3)cc12 | 0.2 |
| CC(C)(C)n1nnnc1C(c1cc2cc3c(cc2[nH]c1=O)OCO3)N1CCN(c2ccccc2)CC1 (configuration not stated) | i |
| O=C(CCCC(=O)N(CC(=O)NC1CCCC1)C1CCCC1)Nc1ccccn1 | i |
| O=C(NCc1ccco1)c1cc2nc(-c3ccc4c(c3)OCO4)cc(C(F)(F)F)n2n1 | i |
| CSc1cccc(NC(=O)c2ccco2)c1 | i |
| O=C(CCC1CCCCC1)N1CCN(Cc2ccc3c(c2)OCO3)CC1 | 3.5 |
| Cc1ccc(N2C(=O)c3ccc(C(=O)N4CCN(c5ccccc5F)CC4)cc3C2=O)cc1 | 0.1 |
| COCCNC(=O)c1ccc(NS(C)(=O)=O)cc1 | i |
| CC(CN1CCCCC1)OC(=O)c1ccc(Cl)cc1 (configuration not stated) | 0.3 |
| CCn1c(=S)[nH]c2ccccc21 | 1.4 |
| CC(C)n1c(N2CCN(CC(=O)Nc3ccc4c(c3)OCCO4)CC2)nc2ccccc21 | i |
| Clc1ccc2[nH]cc(-c3nnnn3-c3ccc4ccccc4c3)c2c1 | i |
| O=C1/C(=C/c2cccc(F)c2)CSc2sccc21 | i |
| O=C(CN1C(=O)c2cccc3cccc(c23)C1=O)N1CCCCCC1 | 0.4 |
| CC(C)Oc1ccc2c3c(c(=O)oc2c1)CCC3 | 0.2 |
